Compound activity: PubChem, several laboratories
CSC inhib: blocks cancer stem cells; 300,000 tested, 1.1% active; cancer stem cell-like cells viability, luminescence; inhibition, % at 7.5 µM; AID 2717;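 active = mean at 75% or more and at least half the replicates too; inconclusive = mean and replicates disagree; tested in HMLE shEcad cells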;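 note: 0% = median of negative and 100% = median of positive control wells; the first replicate is given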
Rce1 inh: blocks yeast Ras-converting enzyme; Q03530; yeast membranes, quenched prenylated peptide cleavage fluorescence; calls only; 290,000 tested, 0.27% active;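 active = fall in fluorescence gain of 50% or more versus controls, with final raw signal at or below 3038400; inconclusive = same 50% fall but final raw signal above 3038400; inactive = fall in fluorescence gain under 50%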;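 note: plate controls were neutral control wells for no effect and wells lacking membranes for full effect; tested at 10 µM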
Target sequence (Q03530 whole entry, looked up): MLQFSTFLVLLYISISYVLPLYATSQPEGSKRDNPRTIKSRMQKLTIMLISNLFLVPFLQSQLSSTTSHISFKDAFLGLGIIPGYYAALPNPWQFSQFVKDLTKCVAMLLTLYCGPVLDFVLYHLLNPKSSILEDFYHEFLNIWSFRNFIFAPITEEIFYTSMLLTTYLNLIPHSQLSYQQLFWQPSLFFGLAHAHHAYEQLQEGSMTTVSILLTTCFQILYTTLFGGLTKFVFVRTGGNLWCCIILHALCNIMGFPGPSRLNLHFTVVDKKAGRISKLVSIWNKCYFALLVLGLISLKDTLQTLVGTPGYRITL
UUG fidelity: alters start codon recognition fidelity in yeast; S. cerevisiae UUG-firefly luciferase reporter, luminescence/redox ratio; activity score, % at 18.7 µM; 350,000 tested, 0.13% active;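 active = replicate mean at a twofold rise or more, about +100% in these data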;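 note: firefly luciferase made from a UUG start codon reports start codon fidelity; reporter light over untreated wells divided by growth signal over untreated wells; some hits fall short of that in this replicate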
eIF4H FP inh: inhibitors of RNA binding by human eIF4H; Q15056; 290,000 tested, 0.94% active; inhibition, % at 35 µM; eIF4H fluorescence polarization binding assay;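 active = 50% or more with normal probe brightness, or confirmed in later tests; inconclusive = above 50% with abnormal brightness, or retests that disagree; inactive = below 50% or failed in later tests; about a fifth of its hits are not listed in these tables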;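 note: calls also rest on retests at 20 µM and on dose response follow-up; 0% = protein and probe with vehicle and 100% = probe without protein; strong numbers were not always called active; many hits fall short of the cut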
HIV Env fusion: HIV envelope-mediated fusion inhibition. HeLa-JRFL Env/CEM21 cell fusion, luciferase. inhibition, % at 12.3 µM. 360,000 tested, 1.1% active. AID 651610;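 active = mean replicate inhibition score of at least 50 and every replicate individually at or above 50; inconclusive = only one of the two criteria met; inactive = mean below 50 and not all replicates reaching 50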;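 note: 0% = plate neutral controls and 100% = maraviroc near 300 nM; one replicate is shown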
PABP polyA inh: PABP-poly(A) binding inhibition | AID 2014 | PABP-poly(A) RNA binding, fluorescence polarization | inhibition, % at 35 µM | 290,000 tested, 1% active | P11940;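 active = 50% or more with normal probe brightness, or confirmed in later tests; inconclusive = above 50% with abnormal brightness, or retests that disagree; inactive = below 50% or failed in later tests; about a fifth of its hits are not listed in these tables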;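 note: calls also rest on retests at 20 µM and on dose response follow-up; controls were probe without protein and protein plus probe with vehicle; some compounds called inactive have numbers as strong as hits; many hits fall short of the cut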
MT1-MMP act inh: MT1-MMP (human) activation inhibition; GFP/RFP ratio change, % at 20 µM; P50281; AID 651647; HT1080 RFP-PRO-GFP cells, GFP/RFP ratio fluorescence, overnight; percent of plate control window, DMSO zero; 360,000 tested, 0.061% active;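 active = GFP/RFP ratio change of at least 30% with cell ATP level not reduced by more than half and red fluorescence within 50% of control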; note: strong numbers were not always called active
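Test system: HT1080 RFP-PRO-GFP cells; Benchmarks: DMSO and RFP-L50D-GFP cell wells; Timing: cells overnight before dosing, compound overnight, 37 °C, 5% CO2; Compound: one 20 µM compound dose with 1% DMSO; Read-out: GFP/RFP fluorescence ratio.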
MT1-MMP act inh RFP: second read-out of MT1-MMP act inh, no call of its own (marks repeat the call); RFP signal change, %; measured here: RFP expression control read;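 0 = vehicle wells; hits needed this value within 50% of zero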
Starred values were filed as active, the others as inactive; i = inactive; ? = inconclusive; · = not tested or not shown.

Sample of the layout (eleven entries):
SMILES | CSC inhib | Rce1 inh | UUG fidelity | eIF4H FP inh | HIV Env fusion | PABP polyA inh | MT1-MMP act inh | MT1-MMP act inh RFP
COc1ccccc1CNS(=O)(=O)c1cc2c3c(c1)CCC(=O)N3CCC2 | -8 | i | · | · | -10 | · | 3 | -4
O=C(Nc1cccc(Cl)c1)Nc1nnc(CC2=CCCCC2)s1 | 30 | · | -17 | -9 | 19 | -11 | -12 | -26
C=C[C@@H]1c2c(F)cccc2N(S(=O)(=O)c2ccc(C)cc2)[C@H](c2ccc(C(=O)OC)cc2)C1(C#N)C#N | 15 | · | -18 | · | ? | · | -1 | -12
COc1cc(/C=C2\SC(=S)N(NS(=O)(=O)c3ccc(C)cc3)C2=O)cc(OC)c1OC | 21 | i | -12 | -10 | -12 | 12 | 2 | 2
COc1cc(C(=O)NCC(=O)N/N=C(/C)c2cccs2)cc(OC)c1OC | 0 | i | · | 2 | -8 | 5 | -2 | 4
Cc1ccc(Nc2c(-c3ccccn3)nc3cccc(C)n23)cc1 | ? | i | -40 | 8 | 47 | -5 | -1 | -17
CC(=O)N/C(=C\c1ccccc1)C(=O)OCC(=O)Nc1ccc(C)c(S(=O)(=O)N(C)C)c1 | -12 | · | -15 | · | · | · | -4 | -5
CCN1CCN(C(=O)c2cc(COc3ccc(C(C)=O)cc3OC)on2)CC1 | -11 | i | -8 | 0 | -38 | 4 | 2 | 0
Cc1cccc(-c2noc(Cc3ccccc3)n2)c1 | 3 | i | -17 | 6 | -79 | 7 | 1 | -3
O=C(Nc1ccc(OCC(=O)N2CCOCC2)cc1)Nc1cccc2ccccc12 | -3 | i | · | -1 | -4 | -3 | 2 | 2
Cc1cc(SCC(=O)c2ccccc2)n2nc(C)nc2n1 | 3 | i | -15 | 4 | 43 | 4 | 1 | 5

Main list, previewed entries included:
SMILES | CSC inhib | Rce1 inh | UUG fidelity | eIF4H FP inh | HIV Env fusion | PABP polyA inh | MT1-MMP act inh | MT1-MMP act inh RFP
COc1ccccc1CNS(=O)(=O)c1cc2c3c(c1)CCC(=O)N3CCC2 | -8 | i | · | · | -10 | · | 3 | -4
O=C(Nc1cccc(Cl)c1)Nc1nnc(CC2=CCCCC2)s1 | 30 | · | -17 | -9 | 19 | -11 | -12 | -26
C=C[C@@H]1c2c(F)cccc2N(S(=O)(=O)c2ccc(C)cc2)[C@H](c2ccc(C(=O)OC)cc2)C1(C#N)C#N | 15 | · | -18 | · | ? | · | -1 | -12
COc1cc(/C=C2\SC(=S)N(NS(=O)(=O)c3ccc(C)cc3)C2=O)cc(OC)c1OC | 21 | i | -12 | -10 | -12 | 12 | 2 | 2
COc1cc(C(=O)NCC(=O)N/N=C(/C)c2cccs2)cc(OC)c1OC | 0 | i | · | 2 | -8 | 5 | -2 | 4
Cc1ccc(Nc2c(-c3ccccn3)nc3cccc(C)n23)cc1 | ? | i | -40 | 8 | 47 | -5 | -1 | -17
CC(=O)N/C(=C\c1ccccc1)C(=O)OCC(=O)Nc1ccc(C)c(S(=O)(=O)N(C)C)c1 | -12 | · | -15 | · | · | · | -4 | -5
CCN1CCN(C(=O)c2cc(COc3ccc(C(C)=O)cc3OC)on2)CC1 | -11 | i | -8 | 0 | -38 | 4 | 2 | 0
Cc1cccc(-c2noc(Cc3ccccc3)n2)c1 | 3 | i | -17 | 6 | -79 | 7 | 1 | -3
O=C(Nc1ccc(OCC(=O)N2CCOCC2)cc1)Nc1cccc2ccccc12 | -3 | i | · | -1 | -4 | -3 | 2 | 2
Cc1cc(SCC(=O)c2ccccc2)n2nc(C)nc2n1 | 3 | i | -15 | 4 | 43 | 4 | 1 | 5
COc1ccc(C(=O)NCc2cccnc2)cc1OC | -4 | i | -12 | -5 | -17 | 8 | 9 | 8
Cc1ccc(C(=O)Nc2cc3ccccc3oc2=O)cc1 | ? | · | · | -6 | 41 | 13 | -2 | -1
Cc1ccc(N2N=C(C(=O)O)CCC2=O)cc1Cl | -4 | i | -4 | -8 | 0 | -10 | 2 | 3
COC(=O)[C@@]1(Cc2ccccc2)[C@H]2C(=O)N(Cc3ccccc3)C(=O)[C@H]2[C@H]2CN=C(SCc3ccc(Cl)cc3)N21 | · | · | -5 | · | 23 | · | -9 | -19
COc1ccc(OC)c(N/C=C/C(=O)c2ccccc2)c1 | 3 | i | -85 | -9 | 10 | 11 | -2 | -1
CN(Cc1ccccc1)c1nccn2ccnc12 | · | · | -13 | · | -13 | · | 10 | -2
Cc1ccc(C)c(S(=O)(=O)N2CCN(C(=O)[C@H](C)N3C(=O)C4CC=CCC4C3=O)CC2)c1 (stereo partly specified) | 1 | · | -10 | · | -6 | · | -8 | 0
CCOC(=O)N1CCC(NC(=O)C2CCN(S(=O)(=O)c3cnc[nH]3)CC2)CC1 | -1 | i | -8 | 2 | · | -6 | 1 | 4
C[N+]1(CC(O)COc2ccccc2)CCN(C(=O)c2ccc([N+](=O)[O-])cc2)CC1 (stereo unspecified) | 1 | i | -10 | 4 | 15 | -4 | · | ·
CNC(=O)C[C@H]1C(=O)N(c2ccccc2)C[C@@H]1Cc1ccccc1 | · | · | -16 | · | -29 | · | -1 | -3
C/C(=N\NC(=O)c1ccc([N+](=O)[O-])cc1Cl)c1ccccc1 | -8 | i | · | 2 | -32 | -4 | 2 | -2
N#Cc1c(N)sc(=S)c2c1CCCC2 | 7 | i | · | ? | · | ? | -12 | 6
COc1cccc(CNc2ncnc3ccc(-c4c(C)noc4C)cc23)c1 | 12 | · | -12 | · | 23 | · | 1 | -26
CC(=O)Nc1ccc(NC(=O)c2c(C)nn(Cc3ccccc3Cl)c2C)cc1 | -3 | i | 4 | 4 | -5 | 7 | · | ·
CC(C)(C)OC(=O)NCCc1nnc(SCC(=O)c2ccc(Cl)cc2)o1 | 1 | i | 2 | -6 | 19 | 4 | 1 | -3
O=C(Nc1ccc(NC(=S)NC(=O)c2ccco2)cc1)c1ccccc1 | -7 | · | -17 | -17 | -48 | 3 | 1 | -5
CCN(CC)CCCNC(=S)N(Cc1cccnc1)Cc1cc2cc(C)ccc2[nH]c1=O | -12 | i | · | 1 | 7 | -1 | -3 | 1
COc1ccc(CCNC(=O)c2cc(-c3cc(C)cc(C)c3O)n[nH]2)cc1OC | 43 | i | 6 | -1 | 0 | 8 | 3 | -7
CCOC(=O)C1(Cc2ccc(Cl)cc2)CCN(C(=O)c2cc(C)nc(C)n2)CC1 | -8 | i | 30 | -13 | 4 | 7 | 0 | -3
CN1CCN(c2ccc([N+](=O)[O-])cc2S(=O)(=O)N2CCOCC2)CC1 | -10 | i | -20 | -4 | · | -2 | -4 | 1
Cc1ccccc1NC(=O)N1CCCC(c2nc(-c3ccc(C(C)C)cc3)no2)C1 (stereo unspecified) | 27 | i | -19 | 3 | · | 6 | -4 | -18
Nc1ncc(Br)cc1S(=O)(=O)NCCC(=O)NCCc1ccccc1 | 7 | i | 0 | · | 7 | · | -5 | -4
Cc1cc(C)nc(N(C#N)CC(=O)N(c2ccccc2)C(C)C)n1 | -3 | i | -6 | -8 | · | 0 | 4 | 1
CCn1c(=O)cc(OCC(=O)NCCC(C)C)c2ccccc21 | -4 | i | 11 | -8 | 2 | 6 | 0 | 4
CCC1(C)COC(c2ccc(OC)c(OC)c2)OC1 (stereo unspecified) | · | · | -8 | · | -10 | · | -1 | -1
Cc1cccc(NC(=O)/C(=C\c2ccco2)NC(=O)c2cccs2)c1 | -3 | i | -20 | 4 | -47 | 8 | -16 | 1
CC(O)CNCCOc1cccc(Oc2ccccc2)c1 (stereo unspecified) | 19 | i | · | 7 | -1 | -7 | 2 | 2
COCCCn1c(=NC(=O)c2ccccc2)c(C#N)cc2c(=O)n3cccc(C)c3nc21 | 10 | i | 2 | ? | -26 | ? | -4 | -6
CCCC(=O)Nc1c(-c2cccc(OC)c2)c(=O)c2ccccc2n1C | 11 | i | 1 | 6 | -1 | 7 | 1 | 3
O=C(NCc1ccccn1)c1cc2n(n1)C(C(F)(F)F)CC(c1ccco1)N2 (stereo unspecified) | · | i | -11 | -2 | · | 17 | -1 | 1
Cc1cc(C)n2c(SC/C(O)=C(\C#N)c3nc4ccccc4[nH]3)nnc2n1 | -5 | i | -29 | 80* | -73 | 51* | -12 | 6
CC1CCCN(CCOCCOc2ccc(Cl)cc2Br)C1 (stereo unspecified) | 18 | i | -12 | 2 | 26 | 13 | 1 | -1
COc1ccc(Cc2c(-c3ccc(OC)c(OC)c3)nc3ccc(C)cn23)c(C)c1 | · | · | 61 | · | 9 | · | 0 | -6
COc1ccc(CNC(=O)O[C@H]2C[C@@H]3C(=O)N(c4ccccc4)C(=O)[C@@H]3[C@@H]3CN(S(=O)(=O)c4ccc(C)cc4)C[C@]23O)cc1OC | · | · | -9 | · | 28 | · | 1 | 1
Cc1ccc(NC(=O)c2cc(C)nc3ccccc23)cc1 | 0 | i | -1 | -7 | -2 | 6 | 2 | 2
O=C(NCc1cccnc1)C1CC(=O)N(c2ccc(F)cc2)C1 (stereo unspecified) | · | i | -1 | -15 | · | 3 | -3 | 3
COc1cc(C(=S)N2CCCC2)cc(Cl)c1OCC(=O)Nc1ccc(C)cc1C | 3 | i | -12 | -4 | 13 | -2 | -7 | -5
CC(=O)NS(=O)(=O)c1ccc(NC(=S)NC(=O)CC(C)C)cc1 | -4 | i | · | -5 | 5 | 10 | -1 | -1
Cc1cccc(NC(=O)CSc2nc3sc(C)cc3c(=O)n2C)c1 | · | · | -14 | · | 4 | · | 0 | -2
O=C(Nc1cccc(Cl)c1)c1cc(S(=O)(=O)N2CCCCC2)c[nH]1 | -6 | i | -15 | -11 | -10 | -6 | 5 | 2
O=C(O)c1ccc(CNCc2ccc(Cl)cc2)cc1 | -10 | i | · | -4 | 19 | -2 | -4 | -2
COC(=O)c1ccccc1OC(=O)c1cccnc1 | -13 | i | -18 | 4 | · | 0 | 0 | 1
CCC(=O)N1CCc2cc(S(=O)(=O)CCC(=O)NCCC3=CCCCC3)ccc21 | -11 | i | -15 | -6 | 0 | -3 | 1 | -1
COc1ccc(C(CNC(=O)c2cc(C)on2)N(C)C)cc1 (stereo unspecified) | -2 | i | · | -5 | -1 | 1 | 0 | 0
COc1cc(NC(=O)C2(C)CCCN(C(C)C)C2)cc(OC)c1OC (stereo unspecified) | · | · | -11 | · | -22 | · | -1 | 0
Nc1nc(NS(=O)(=O)c2ccc(Cl)cc2)nn1-c1ccccc1 | -7 | i | -22 | 4 | -12 | -6 | -1 | 4
Cc1onc(-c2ccccc2Cl)c1C(O)c1ccc(F)cc1 (stereo unspecified) | -6 | i | 5 | -4 | 6 | -7 | -3 | -2
COc1ccc(-n2nc(C(=O)NCC(=O)N3CCN(c4ccccn4)CC3)c3ccccc3c2=O)c(OC)c1 | -10 | i | 1 | · | -28 | · | 7 | 11
O=C(NC1CCCc2c1cnn2-c1ccccc1F)c1ccncc1 (stereo unspecified) | · | · | 8 | · | 48 | · | 7 | -27
COc1cccc(C(=O)C2CCCN(Cc3c(C)n(C)n(-c4ccccc4)c3=O)C2)c1 (stereo unspecified) | -5 | i | · | -2 | 11 | -2 | 7 | 3
COCc1[nH][nH]c(=O)c1/C=N/N1CCOCC1 | -4 | i | · | -7 | -1 | -1 | -2 | 3

An unsorted share of the library; overall some 2.9% were active at least once.
